Compound activity as filed in PubChem BioAssay.
Tgondii IFNg: inhibitors of Toxoplasma gondii growth with IFN-gamma. Toxoplasma gondii growth in IFN-gamma-treated host cells; hits give low values; reference of the scale not given here. activity change, negative = inhibition, %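 (about 20 µM by stock and volumes)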. 3.8% of 69,000 active;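 active means below -70%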;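 further: host cells are HeLa cells infected with Toxoplasma gondii; parasite growth read as luciferase light; one replicate is shown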
The depositor's hits bear a star; i = inactive; ! = a repeat was not active. Not all compounds are listed. The share of hits here may be higher or lower than overall.

SMILES,Tgondii IFNg
CC(C)N=c1cc2n(-c3ccc(Cl)cc3)c3ccccc3nc-2cc1Nc1ccc(Cl)cc1,-71.4*!
O=C(C1CNCCO1)N1CCC(c2cc(Cc3ccccc3)[nH]n2)CC1 (stereo unspecified),4.5
Clc1cccc(CSc2nc(NC3CCCCC3)c3ccccc3n2)c1,-23.2
COc1ccc2c(c1)C=C(CN1CCC(O)(c3cnc(OC)nc3OC)CC1)CO2,22.4
CN1C(=O)c2cc(NC(=O)c3cscn3)ccc2OC[C@@H]2O[C@@H](CC(=O)NCc3ccc(Cl)c(Cl)c3)CC[C@H]21,-62.3
COc1ccccc1C1(CC(=O)N2CCC(Oc3cccc(F)c3)CC2)CC(=O)N(C)C1=O (stereo unspecified),5.5
O=C(Cn1c(=O)cc(-c2nc(C3CC3)no2)c2ccccc21)Nc1ccc2c(c1)OCO2,24.4
CCCN1C[C@H](C)[C@@H](OC)CN(C)C(=O)c2cc(NC(=O)C3CCC3)ccc2OC[C@H]1C,-13.2
C=CCN1CC2(CCN(c3ccc(C)nn3)CC2)OCC1=O,423.8
CSc1nnc(CC2CCN(C/C=C/c3ccco3)CC2)n1C,-3.2
Cc1cc(=O)oc2cc(CN3CCN4C(=O)CN(C)C(=O)C4C3)ccc12 (stereo unspecified),-2.3
CC(C)OCC12CCCOC1CCN(c1ccncn1)C2 (stereo unspecified),0.4
CC(=O)N1Cc2cc(C(=O)NCC(F)(F)F)nc(-c3cccc(-c4cccnc4)c3)c2[C@@H]1CCO,-50.3
COc1ccc([C@@H]2CC(=O)c3c(O)cc(O[C@@H]4O[C@H](CO[C@@H]5O[C@@H](C)[C@H](O)[C@@H](O)[C@H]5O)[C@@H](O)[C@H](O)[C@H]4O)cc3O2)cc1O,10.3
Cc1ccc(S(=O)(=O)N2CCC(C(=O)NCCc3csc(-c4ccccc4)n3)CC2)cc1,-39.7
CCOc1ccccc1C1c2[nH]c3ccccc3c2CCN1C(=O)c1cc(C2CC2)on1 (stereo unspecified),13.9
CO[C@@H]1CN(C)C(=O)c2ccc(NC(=O)c3cc(C)on3)cc2OC[C@H](C)NC[C@H]1C,-39.2
Cc1cc(C)c(C#N)c(OC(=O)c2cccs2)n1,20.6
CCc1nnc(CN(C)Cc2cccc(C(=O)Nc3cnn(C)c3)c2)o1,-0.2
O=C(c1ccc(F)cc1)C1CCN(C(=O)c2ccc(-c3cccs3)s2)CC1,-64.8
COc1ccc(C(NC(=O)Cn2ccc3ccc(F)cc32)c2ccncc2)cc1 (stereo unspecified),-29.3
C[C@@H]1CN([C@H](C)CO)C(=O)CCCn2nncc2CO[C@@H]1CN(C)C(=O)Nc1ccccc1C(F)(F)F,-21.6
COc1cccc([C@@H]2C[C@H](NC(C)=O)C[C@H](C3CCCCC3)O2)c1F,-32.2
CN1CCC(CNC(=O)c2ccc(Oc3ccccc3)o2)C1 (stereo unspecified),8.2
CC(=O)N(C)C1CCN(Cc2nc(-c3cccc(C(F)(F)F)c3)oc2C)C1 (stereo unspecified),0.4
O=C(c1cccc(F)c1)N1CC(=O)N2[C@H](CO)[C@H](c3ccc(C4=CCCCC4)cc3)[C@@H]2C1,-19.7
c1ccc(Oc2cccc3cccnc23)nc1,70.0
Cn1ccnc1SCCn1ccnc1-c1ncc[nH]1,-3.1
CCn1c(Cc2ccc(OC)cc2)nnc1SC(C)c1nc2ccccc2c(=O)[nH]1 (stereo unspecified),-3.7
CCOc1ccc(CNC(=O)c2nc(Nc3ccccc3)c3ccccc3n2)cc1,-51.6
CN(Cc1ccncc1)Cc1nc2ccccc2[nH]1,49.2
Cc1nc(C2CC2)ncc1C(=O)N(C)Cc1ccc2nonc2c1,-41.1
Cn1cccc1C(=O)N1CCC2(CCC(=O)N2Cc2ccncc2)CC1,-1.0
CC1CCN(c2ncnc3c2cnn3CC(=O)Nc2ccccc2Cl)CC1,72.4
C/C=C/c1ccc([C@@H]2[C@@H](CO)N3CCCCN(S(=O)(=O)c4ccc(OC)cc4)C[C@H]23)cc1,-9.4
c1ccc(Cc2cc(C3CCN(Cc4cc5n(n4)CCNC5)CC3)n[nH]2)cc1,20.0

The last 5 records of the part above lead into the next:
SMILES,Tgondii IFNg
Cc1nc(C2CC2)ncc1C(=O)N(C)Cc1ccc2nonc2c1,-41.1
Cn1cccc1C(=O)N1CCC2(CCC(=O)N2Cc2ccncc2)CC1,-1.0
CC1CCN(c2ncnc3c2cnn3CC(=O)Nc2ccccc2Cl)CC1,72.4
C/C=C/c1ccc([C@@H]2[C@@H](CO)N3CCCCN(S(=O)(=O)c4ccc(OC)cc4)C[C@H]23)cc1,-9.4
c1ccc(Cc2cc(C3CCN(Cc4cc5n(n4)CCNC5)CC3)n[nH]2)cc1,20.0
Cc1cc(-c2nnc(SCC(=O)Nc3ccc(C(C)C)cc3)n2C)no1,-19.4
COc1cc(N2CCCC3(CCN(CCN(C)C)C3=O)C2)ncn1 (stereo unspecified),9.3
CC(=O)Nc1cccc(-c2ccc3c(c2)CCC3=O)c1,-1.3
CN1CCN(C(=O)C[C@H]2CC[C@@H]3[C@H](COC[C@@H](O)CN3Cc3cccc(-c4ccncc4)c3)O2)CC1,-20.2
COC[C@H]1CCCN1C(=O)CC(=O)Nc1cc(C)cc(C)c1,-0.2
N#C[C@@H]1[C@@H](c2ccccc2C2=CCCCC2)[C@H](CO)N1S(=O)(=O)c1ccccc1,-55.0
Cc1cc(C)c2c(=O)nc(SCc3nc(-c4ccccc4)oc3C)n(C3CC3)c2n1,195.7
CN1Cc2c(C(=O)NC3CCCCC3)ncn2-c2ccccc2S1(=O)=O,23.4
CCOC(=O)c1nc(N(C)c2cccc(C)c2)c2ccccc2n1,63.8
O=C1NC(Cc2ccc(F)cc2)(C2CCNCC2)C(=O)N1Cc1cncs1 (stereo unspecified),3.6
O=C1CC2(CCN(C(=O)CC(c3ccccc3)c3ccccc3)CC2)CN1,14.0
COCC1CN(Cc2nccs2)Cc2c1cnn2CC1CC1 (stereo unspecified),-7.4
COc1ccccc1CN(CCCN1CCOCC1)C(=O)c1ccccc1-c1ccccc1,-5.1
NC(=O)[C@H](Cc1ccccc1)N1Cc2ncccc2C1=O,2.3
CCCNC(=O)N1[C@H](C#N)[C@H](c2ccc(-c3ccccc3F)cc2)[C@H]1CO,-58.4
Cc1cccc(COCC2CN(C(=O)N(C)C)Cc3ncn(C)c32)n1 (stereo unspecified),99.4
Cc1ccc(CN(CCCn2ccnc2)CC2=COCCO2)s1,-16.5
CC(C)(C)NC(=O)[C@@H]1CCCC[C@@H]1C(=O)NCCN1CCOC1=O,232.6
COc1ccc(-n2ncc3c(Nc4ccc(C)cc4)ncnc32)cc1,12.1
CCn1c(C)nc2cc(NC(=O)CCN3CCN(c4ccccn4)CC3)ccc21,2.5
Cc1ccc(-c2coc(-c3ccc(NS(=O)(=O)c4ccc(Br)cc4)cc3)n2)c(C)c1,-0.6
Cc1nc(-c2ccccc2)sc1CCNC(=O)c1ccco1,i
COc1ccc(-c2cn3cc(C)ccc3n2)cc1,317.0
Cc1oc(C2CCN(S(=O)(=O)c3ccc(F)cc3)CC2)nc1C(=O)N1CCOCC1,-25.5
C#CCOc1ccc(CN2CCC(c3cc(=O)[nH]c(N4CCCC4)n3)CC2)cc1OCC,0.1
O=c1oc2ccccc2cc1-c1nc(-c2ccc(F)cc2)no1,106.5
CC(C)N(C)Cc1cnc2n1CCN(C(=O)Cc1ccsc1)CC2,-7.9
CCOC(=O)Cn1nc2nnc(-c3ccc(F)cc3)c(-c3ccc(F)cc3)n2c1=O,-35.9
COc1ccc(S(=O)(=O)Nc2ccc3c(c2)C(=O)N([C@@H](C)CO)C[C@@H](C)[C@H](CN(C)S(=O)(=O)c2ccc(Cl)cc2)OCCCC[C@H](C)O3)cc1,-102.2*
CNC[C@@H]1OCCCC[C@H](C)Oc2ccc(NS(=O)(=O)c3ccc(F)cc3)cc2C(=O)N([C@@H](C)CO)C[C@H]1C,33.9
O=C(c1cscn1)N1CCC2(C1)CN(C(=O)C1CCOCC1)C2,29.4
N#C[C@@H]1[C@@H](c2ccccc2)[C@H](CO)N1C(=O)c1ccc2c(c1)OCO2,0.6
Cc1cccc(-c2nc(Cn3c(=O)c4c(C)cc(C)nc4n(Cc4ccco4)c3=O)c(C)o2)c1,4.1
COCC1CN(Cc2cnn(C)c2)Cc2ncn(C)c21 (stereo unspecified),4.6
Cc1ccc(CN2CCc3c(nnn3C)C2COCC2CC2)o1 (stereo unspecified),0.2
CS(=O)(=O)N1C[C@@H](O)COC[C@@H]2O[C@H](CC(=O)NCc3ccccc3)CC[C@H]21,-3.9
COCC1CN(C(=O)N(C)C)Cc2nccn2C1 (stereo unspecified),-41.7
COCC#Cc1ccc([C@H]2[C@H]3CN(C(=O)NC4CCCC4)CCCCN3[C@H]2CO)cc1,7.8
CC(C)Oc1ccc(CNC(=O)c2nc(Nc3ccc(F)cc3)c3ccccc3n2)cc1,14.4
COc1cccc(S(=O)(=O)N2CC[C@H]3[C@H](CO)Nc4ccc(C#Cc5cccnc5)cc4[C@H]32)c1,-12.1
Cc1ccc(CNC(=O)Cn2ncc3c(N4CCN(c5ccccn5)CC4)ncnc32)cc1,-97.3*
Cc1nccc(-c2cccc(-n3ccnc3C(C)C)c2)n1,-8.3
CC(=O)N1CCC(NCCSCc2ccccc2C)CC1,-48.2
CN1C2CCN(C(=O)c3ccc[nH]3)CC2C[C@H]1CN1CCCC1 (stereo partly specified),1.8
CC1=C(C(=O)NCc2cccnc2)C2(CCN(S(C)(=O)=O)CC2)OC1=O,0.1
Cc1ccc(CNC(=O)Cn2c(=O)ccc3cc(S(=O)(=O)N4CCCC4)ccc32)cc1,179.3
Cc1ccsc1CN(C)Cc1cn[nH]c1-c1ccc(F)cc1,-6.6
Cc1nc(CCNC(=O)[C@H]2CCCN2S(=O)(=O)c2ccc3c(c2)CCCC3)cs1,3.2
COc1ccc(C(=O)N2CCCC2c2nc3ccccc3[nH]2)cc1Cn1nc(C)cc1C (stereo unspecified),-57.2
Cc1ccc(-c2coc(-c3ccc(NC(=O)c4ccccc4)cc3)n2)cc1,-46.1
O=c1c2[nH]c3ccccc3c2nc(SCc2cccnc2)n1-c1ccc(OC(F)(F)F)cc1,284.7
O=C(COC(=O)c1cn(-c2ccccc2)nc1-c1ccccc1)c1ccc(Cl)cc1,-23.9
C[C@@H]1CN([C@H](C)CO)C(=O)CCCn2nncc2CO[C@H]1CN(C)Cc1ccccc1C(=O)O,47.5
COc1ccc(-c2ccc([C@H]3[C@H](CO)N4C(=O)CN(Cc5ccccc5)C[C@@H]34)cc2)cc1,-11.1
CC(=O)N(CCc1ccc(S(N)(=O)=O)cc1)C1CC(=O)N(c2ccccc2)C1=O (stereo unspecified),3.3
CCOC(=O)c1nn(-c2ccccc2Cl)cc(Sc2ccc(Cl)cc2)c1=O,-41.7
CS(=O)(=O)N1[C@@H](C#N)[C@@H](c2ccccc2-c2ccccc2F)[C@@H]1CO,-5.5
O=C(CSc1n[nH]c(=O)n1-c1cccnc1)N1CCOCC1,-2.9
CC(C)=CCc1c2c(c3occ(-c4ccc(O)cc4)c(=O)c3c1O)C=CC(C)(C)O2,-82.2*
Cc1noc(C)c1CC(=O)N1CC(C(=O)N2CCN(c3ccccc3)CC2)C1,21.8

Next part.
SMILES,Tgondii IFNg
CC1(C)COC(c2sccc2C(=O)N(C(=O)NC2CCCCC2)C2CCCCC2)=N1,-10.5
CCc1[nH]nc2c1C(c1ccc(C#CCCO)cc1)CC(=O)N2 (stereo unspecified),2.9
COc1ccc(N(Cc2nc(-c3ccccc3OC)oc2C)S(=O)(=O)c2ccc(C)cc2)cc1,-4.0
CN1C[C@H]2CCCO[C@H]2[C@H](N(C)Cc2ccco2)C1,-0.9
Cc1occc1C(=O)N1CCC2(CC1)OC(C(=O)N1CCCC1)Cn1ccnc12 (stereo unspecified),2.3
CCc1ccn2cc(-c3cc(-c4ccccc4)no3)nc2c1,-81.0*
Cc1ccc(CN2CCC(c3cc4c(ncn4C(C)C)c(N4CCCC4)n3)CC2)o1,-54.2
CC(C)C[C@H]1COCc2cn(nn2)CC[C@@H](C)C(=O)N1,-16.3
CC(=O)Nc1ccc(Cl)c(C(=O)NC(C)c2ncn[nH]2)c1 (stereo unspecified),57.3
CN(C)CC(=O)N1[C@@H](CO)[C@H](c2ccccc2)C12CN(C(=O)c1ccc(F)cc1)C2,-25.0
CC1CCN(S(=O)(=O)c2ccc3c(c2)CCC(=O)N3CC(=O)NCc2cccs2)CC1,-9.7
COc1cc2cc(CN3CCCC3c3nonc3C)c(=O)[nH]c2cc1OC (stereo unspecified),35.0
O=C(CCc1ccccc1)Nc1ccc(S(=O)(=O)Nc2nccs2)cc1,-55.4
O=C1CCCN1Cc1nnc2n1CCCN(C(=O)c1ccco1)C2,-1.8
N#C[C@H]1[C@H](c2ccccc2)[C@H](CO)N1C(=O)c1ccc2c(c1)OCO2,1.2
CCOc1ccccc1-c1nc(Cn2c(=O)c3c(C)cc(C)nc3n(Cc3ccco3)c2=O)c(C)o1,6.1
CC(=O)Nc1cccc(OCCCN2CNc3c(c(=O)n(C)c(=O)n3C)C2)c1,30.3
O=C(Nc1cccc2ccccc12)N1CCCCC1CCN1CCOCC1 (stereo unspecified),21.0
COCCN1C[C@@H]2C[C@H](C(=O)Nc3ccccc3)[C@@H](C1)O2,3.8
Cc1ccccc1C(CNC1CCN(C(=O)c2ccccc2)CC1)N(C)C (stereo unspecified),55.9
